# Assay outcomes deposited in PubChem by Fisher Drug Discovery Resource Center.
# NPYLR7 agonist: activates Aedes aegypti NPYLR7 receptor | AID 1259423 | 270,000 tested, 0.15% active | activation, % at 10 µM | HEK293T NPYLR7/Galpha15, GCaMP6s calcium fluorescence; in the data active = activation above about 40%;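 also: 0% = vehicle and 100% = reference agonist at the receptor; some compounds past the cut are filed as inactive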
# NPYLR7 agonist max-min: recorded beside NPYLR7 agonist, whose call it bears; activation, %; measured here: Max-Min RFU normalised activation; some inactives read as strong as hits;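 span of the calcium signal over five minutes; 0% = vehicle and 100% = native peptide agonist; compound fluorescence can raise it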
# Numbers without * were called inactive; & = joins results of further samples.
SMILES,NPYLR7 agonist,NPYLR7 agonist max-min
O=C(CN1C(=O)CC2(CCCCC2)C1=O)Nc1c(Cl)cccc1C(F)(F)F,4.9,1.4
CCN(CC#N)Cc1cc(F)ccc1Br,4.4,1.8
N#CCC(Cc1ccccc1)c1ccc2c(c1)OCO2 (centres undefined),1.9,1.5
O=c1c2nnn(Cc3ccc(Cl)cc3)c2ncn1Cc1ccc(F)cc1,8.5,7.6
Cc1ccc(-c2cc(C(=O)O)no2)cc1,8.5,-1.7
c1nc2c([nH]1)CCNC21CCCCC1,-1.7,-6.0
Cn1c(NCc2nccc3ccccc23)c(C#N)c(=O)n(C)c1=O,2.1,-1.4
O=C(Nc1ccncc1)C1CC2CCC(C1)C21SCCS1 (centres undefined),-0.8,1.1
COc1ccc(-c2ccc(NC(C)=O)nc2)cc1Cl,10.5,4.9
Cc1cc(C)cc(Cn2c(C)c(C(=O)NCc3ccc4c(c3)OCCO4)sc2=O)c1,13.4,10.2
C=CCN1C(=O)NC(c2ccccc2)C2=C1CN(Cc1ccc3c(c1)OCO3)C2=O (centres undefined),-3.1,7.4
CCOC(=O)CN1C(=O)CN(C(=O)C(CC)CC)CCC(OC)c2ccccc21 (centres undefined),0.3,0.5
CN1CC=C2C(C#N)C(=N)C(C#N)(C#N)C(c3ccc(Cl)cc3)C2C1 (centres undefined),12.8,5.2
COC(=O)c1cc2ccccc2cc1NC(=O)c1ccnc(N(C)C)c1,7.5,7.2
CC(C)C(=O)N(Cc1ccccc1Cl)CC1CC(c2cccnc2)=NO1 (centres undefined),0.9,16.8
Cc1ccc(CN2CCN(c3nc4c(c(=O)[nH]c(=O)n4C)n3Cc3cccc4ccccc34)CC2)cc1,-0.8,-1.6
CCOc1ccccc1OCCOc1ccc(CC)cc1,44.5,33.3
CC(C)CNc1ccc2c(n1)C(=O)N([C@H](C)C(=O)NC1CC1)C2,4.8,-0.1
Cc1cc(C)c2[nH]c(C)c(CC(=O)N3CCOC(C(F)(F)F)C3)c2c1 (centres undefined),5.5,1.6
CN(C)CCN(Cc1cccc(O)c1)S(=O)(=O)Cc1ccccc1,1.6,35.3

# Random excerpt: 4 compounds from above.
SMILES,NPYLR7 agonist,NPYLR7 agonist max-min
Cn1c(NCc2nccc3ccccc23)c(C#N)c(=O)n(C)c1=O,2.1,-1.4
CC(C)CNc1ccc2c(n1)C(=O)N([C@H](C)C(=O)NC1CC1)C2,4.8,-0.1
Cc1ccc(-c2cc(C(=O)O)no2)cc1,8.5,-1.7
N#CCC(Cc1ccccc1)c1ccc2c(c1)OCO2 (centres undefined),1.9,1.5

# Next part:
SMILES,NPYLR7 agonist,NPYLR7 agonist max-min
O=c1oc2ccccc2c(O)c1-c1c[nH]c2ccccc12,1.2,-1.1
O=C(c1ccco1)N1CCC(n2c(=O)oc3ccc(F)cc32)CC1,16.4,12.7
Cc1nnnn1C(=Cc1ccccc1)C(=O)N1CCc2ccccc2C1,4.9,1.1
Cc1ccccc1C(OCCN(C)C)c1ccccc1 (centres undefined),1.1&14.6&8.7&-10.4&0.4&-2.2,-2.9&3.6&7.6&-15.1&-6.8&-3.2
COc1ccc(C2SCC(=O)N2C(CC(C)C)C(=O)NCCN(C)C)cc1 (centres undefined),17.6,16.9
CC(C)=CC(=O)NCCC1CN(Cc2ccccc2F)CCO1 (centres undefined),21.4,8.3
COCC(=O)Nc1ccc(-n2nc(OCc3ccc(F)cc3)nc2-c2ccccc2F)cc1,26.3,33.8
CC(C)C(=O)N1CCC2(CC1)SCC(=O)N2Cc1ccco1,2.5,2.0
COc1ccc(-c2cc3nc(NCC4CCCCC4)n(C)c(=O)c3s2)cc1OC,-0.9,-1.1
CCOC(=O)Oc1cc2oc(=O)sc2cc1Cl,-2.9,-1.6
CCc1ccccc1C(=O)NCC1CCCN(Cc2ccncc2)C1 (centres undefined),7.8,-0.5
Cc1cccc(Nc2ccccc2C(=O)NCC2COCCO2)c1C (centres undefined),12.4,7.3
Cc1ccc(S(=O)(=O)N(Cc2ccncc2)C2CC2)c(Br)c1,9.3,8.2
CN1CCN(Cc2ccc(-c3ccco3)cc2)CC1CCO (centres undefined),1.0,-0.9
CCNC(=O)[C@@H]1C[C@@H](N)CN1C(=O)c1sc(OC)nc1C,10.1,6.8
C=CCn1c(Cn2nnc3ccccc32)nnc1SCC(=O)Nc1ccc(OCC)cc1,-2.2,-6.4
O=[N+]([O-])c1cnc(Nc2ccccc2O)c([N+](=O)[O-])c1,1.6,-0.1
COc1cc(Cn2c(=O)c3c(OC)c(C)cnc3n(C)c2=O)cc(OC)c1,0.0,-2.0
O=C(CN1CCN(c2cc(-c3cccc4oc5ccccc5c34)ncn2)CC1)N1CCCC1,9.5,5.5
CN=C1SC(=Cc2ccc(SC)cc2)C(=O)N1C,-2.1,-3.7
Cc1cc(O)c(C(c2ccccc2)N2CCN(c3ccccn3)CC2)c(=O)n1Cc1cccnc1 (centres undefined),6.4,1.4
O=C1OC(c2ccccc2Br)=N/C1=C\N1CCC(C(=O)O)CC1,-0.1,-1.3
CNCc1cc(-c2ccc3c(c2)OCO3)ccc1OC,7.7,-10.9
Cc1noc(C2CCCN(C(=O)NCc3ccc(C(F)(F)F)cc3)C2)n1 (centres undefined),2.3,2.2
COC(=O)CC1CCCN(C(=O)c2ccccc2OCc2cccnc2)C1 (centres undefined),-7.1,4.3
O=C(C1=C(O)C(=O)N(CCN2CCOCC2)C1c1ccc([N+](=O)[O-])cc1)c1ccco1 (centres undefined),6.7,10.3
CCCc1ncc(C(O)c2cccc3ccccc23)n1C (centres undefined),21.7,15.8
CCC1CCCCN1Cc1nc2c(c(=O)n(C)c(=O)n2C)n1Cc1ccccc1F (centres undefined),7.1,2.2
CC(=O)c1cccc(-c2ccnc3c2CC(C(=O)NC(C)C)O3)c1 (centres undefined),19.4,20.8
COc1ccc(/C=C2\C=C(c3ccccc3)N(c3ccc(C(=O)O)cc3)C2=O)cc1Br,-0.7,5.9
Cc1ccccc1N1CCN(c2cc(Cl)nc(SCC(=O)N3CCC4(CC3)OCCO4)n2)CC1,-2.7,3.4
CCN1CCN(Cc2c(O)ccc3c2O/C(=C\c2cc4cc(Br)ccc4o2)C3=O)CC1,79.0*,75.5*
CCCNc1nnc(S(=O)(=O)C(C)C(=O)NC2CCCCCC2)s1 (centres undefined),9.1,6.0
CCSc1nc(-c2ccc(OC)cc2)cc(-c2ccc(OC)cc2)c1C#N,-3.4,-9.0
CC(C)Nc1ccc(C(=O)NCCOc2ccccc2)cn1,1.5,-0.1
C=CCN1CC(C(=O)N2CCn3nc(C#N)cc3C2)CC1=O (centres undefined),7.5,2.2
CCOC(=O)N1CCN(C(=O)CCN(CCOC)c2nc(Cc3cccc(OC)c3)ns2)CC1,16.5,17.6
C=CCN(Cc1csc(COc2cccc(Cl)c2)n1)C(=O)c1ccco1,36.9,28.3
COc1ccc(N2C(=O)c3ccccc3NC2c2ccc(OC)c(CN3CCOCC3)c2)cc1 (centres undefined),-6.1,-13.9
O=C(O)CN1C(=O)/C(=C2\SC(=S)NC2=O)c2ccccc21,-0.2,-4.3

# Four entries from above, bar-delimited.
compound | NPYLR7 agonist | NPYLR7 agonist max-min
CCc1ccccc1C(=O)NCC1CCCN(Cc2ccncc2)C1 (centres undefined) | 7.8 | -0.5
COc1ccc(/C=C2\C=C(c3ccccc3)N(c3ccc(C(=O)O)cc3)C2=O)cc1Br | -0.7 | 5.9
CCC1CCCCN1Cc1nc2c(c(=O)n(C)c(=O)n2C)n1Cc1ccccc1F (centres undefined) | 7.1 | 2.2
CN=C1SC(=Cc2ccc(SC)cc2)C(=O)N1C | -2.1 | -3.7

# (continued)
SMILES,NPYLR7 agonist,NPYLR7 agonist max-min
O=C(C1CC12c1ccccc1-c1ccccc12)N1CCN(c2ccccc2Cl)CC1 (centres undefined),-7.9,-12.7
CC1CC(C)CN(S(=O)(=O)c2ccc(F)c(F)c2)C1 (centres undefined),1.3,0.3
O=C(O)CC1(Cc2nc(-c3cccs3)no2)CCCC1,-6.3,-4.2
O=C(Cc1ccc2c(c1)OCCO2)NNC(=O)c1ccc(Br)s1,5.4,0.6
Cc1ccccc1S(=O)(=O)NC(=O)C1(C)CCN1C(=O)C1(c2ccccc2)CCCC1 (centres undefined),2.7,1.3
COCC(C)N=C1NN=C(c2ccc(S(=O)(=O)N3CCCCC3)cc2)CS1 (centres undefined),-3.3,-5.6
C=C(C)Cn1c(=O)c2c(nc3n(-c4ccc(OC)cc4OC)c(C)cn23)n(C)c1=O,8.9,3.0
COc1ccc(C(=O)NCc2cc(F)cc3c(C)c(C)[nH]c23)o1,8.0,2.1
Cc1ccc2sc(-c3ccc(N4C(=O)C5CC=CC(C)C5C4=O)cc3)nc2c1 (centres undefined),14.3,10.7
CC(=O)c1ccc(C(=O)N(CCCN2CCOCC2)c2nc3c(C)c(C)ccc3s2)cc1,-0.3,-4.8
O=C(Cn1cnc2c(nnn2Cc2ccccc2)c1=O)c1ccc(Cl)cc1,8.5,7.3
O=C(NCCc1cccnc1)c1ccc(-c2cc(-c3ccc(N4CCCCC4)cc3)n[nH]2)cc1,-4.0,-5.7
CCC(C)N(Cc1cccnc1)C(=O)c1cc(C)nn1CC (centres undefined),-3.8,-7.0
COCc1ccc(CN2CCCC(C(=O)c3ccc4c5c(cccc35)CC4)C2)o1 (centres undefined),5.9,5.4
COc1ccc(-c2cc(-c3c(O)c(OC)c4occc4c3OC)[nH]n2)cc1OC,-2.7,-4.6
O=C(NCC1Cc2cc(F)cc(F)c2O1)c1c(F)c(F)c(F)c(F)c1F (centres undefined),2.3,-2.2
CCc1c(C(=O)N2C[C@@H](C(=O)O)C[C@@H](C(=O)N3CCCC3)C2)csc1C,-0.5,-1.4
CCOC(=O)c1c2c(n3ccc(C)cc13)C(=O)c1ccccc1C2=O,-10.5,-15.1
O=C(c1cccc([N+](=O)[O-])c1)N1CCCN(c2nc(Cc3ccccc3)nc3onc(-c4ccccc4)c23)CC1,-4.4,-1.2
CC(=O)N(C)c1cccc(CNC(=O)CSCc2ccccc2Cl)c1,-0.4,7.5

# Sorted by formula weight (lowest first): part of the list above.
SMILES,NPYLR7 agonist,NPYLR7 agonist max-min
O=C(C1CC12c1ccccc1-c1ccccc12)N1CCN(c2ccccc2Cl)CC1 (centres undefined),-7.9,-12.7
O=C(NCCc1cccnc1)c1ccc(-c2cc(-c3ccc(N4CCCCC4)cc3)n[nH]2)cc1,-4.0,-5.7
O=C(c1cccc([N+](=O)[O-])c1)N1CCCN(c2nc(Cc3ccccc3)nc3onc(-c4ccccc4)c23)CC1,-4.4,-1.2

# The results go on.
SMILES,NPYLR7 agonist,NPYLR7 agonist max-min
Cc1ccc(C)c(CSc2ncc(CO)n2CC(=O)NCc2ccc(Cl)cc2)c1,3.2,-0.9
Cc1c(C(=O)N(C)CCC#N)c(C(F)(F)F)nn1C1CCCN(C)C1 (centres undefined),10.7,0.3
CN(C)S(=O)(=O)c1ccc(O)c(NS(=O)(=O)c2cccc(Cl)c2)c1,-0.2,-1.7
O=C(Cn1c2ccccc2c2ncn(Cc3ccccc3)c(=O)c21)Nc1cccc(F)c1,2.1,2.1
COc1cccc(/C=C2/NC(=S)NC2=O)c1OC,2.5,13.3
Cc1cccc(Nc2cc3c(cn2)cc(-c2cccnc2)n3C)c1,-1.1,-5.7
CCCn1c(C2CCCCC2)nc2c(c(=O)c3ccccc3n2C)c1=O,6.3,2.5
CCc1ccc(-c2ccc(NCc3ccccc3Cl)nn2)cc1S(N)(=O)=O,-12.2,-25.1
CCSCCNC(=S)NC(=O)c1cncc(Br)c1,-15.6,-22.3
CCn1cc(CN2CCC(C(=O)Nc3ccccc3-c3cccc(OC)c3)CC2)c(C)n1,3.5,1.0
CCOC(=O)c1nc2ccccc2nc1N1CCCN(S(=O)(=O)c2ccc(NC(C)=O)cc2)CC1,6.1,4.1
CCC(=O)c1ccc(O)cc1,-0.1,-1.3
COCCCNc1oc(-c2ccc(COc3ccc(Cl)cc3)o2)nc1C#N,-0.1,8.0
Cn1nc(C(C)(C)C)cc1C(=O)NC(C)(C)Cc1c[nH]c2ccccc12,0.4,-0.4
O=C(c1cc(-c2cccs2)nn1-c1cccc([N+](=O)[O-])c1)N1CCN(Cc2ccccc2)CC1,-6.0,-2.6
O=C(CN(C(=O)C1CCCCC1)C1CC1)Nc1nc(CC(=O)N2CCN(c3ccc([N+](=O)[O-])cc3)CC2)cs1,14.4,22.6
O=C(Nc1ccc(N2CCCCC2)cc1)c1c2c(nn1C1CCS(=O)(=O)C1)CCC2 (centres undefined),8.8,6.5
COc1ccccc1NC(=O)C1CC(=O)N(C)C(=Nc2ccc(C)c(C)c2)S1 (centres undefined),0.9,-1.7
COc1ccc(CCOc2nc(-c3ccc(OC)cc3)n(-c3ccc(NC(=O)Nc4ccccc4C)cc3)n2)cc1,14.5,13.8
Cc1cc(N2CCOCC2)ccc1NC(C)c1nc(C(C)C)no1 (centres undefined),6.7&2.5,6.1&0.9
Cc1ccc(C)c(C(=O)CSc2nccn(-c3ccc(Br)cc3)c2=O)c1,3.8,-6.0
Cc1cc(Nc2ccc3c(c2)OCO3)nc(-n2nc(C)cc2C)n1,4.7,6.7
Cc1nc(Sc2nc(CN3CCOCC3)nc3sc4c(c23)CCC(C)C4)oc1C (centres undefined),7.7,11.4
O=C(Nc1ccc(N2CCc3ccccc3C2)c(C(=O)NC2CC2)c1)c1cc(C(F)(F)F)cc(C(F)(F)F)c1,-5.6,6.7
Cc1ccc(C)c(C2CCCN2C(=O)Cc2ccn[nH]2)c1 (centres undefined),-17.7,-18.7
c1ccc(-n2nnnc2OCCOc2nnnn2-c2ccccc2)cc1,8.2,8.3
Cc1ccc(F)cc1NC(=O)CN(C)Cc1ccccc1F,7.1,4.4
CNCc1nncn1-c1cccc2ccccc12,2.1,1.7
O=C(c1ccc(F)cc1)c1coc2ccccc2c1=O,0.3,0.0
COc1ccc(S(=O)(=O)N(Cc2ccc(OCc3nc(CO)cs3)cc2)C2CC2)cc1,27.5,35.9

# Not all compounds are listed; count on the stated rates, not on these rows.
